CDC25B CDK2 inh: human CDC25B-CDK2/CyclinA binding inhibition; P30305+P24941; HTRF CDC25B-CDK2/CyclinA binding, anti-His/anti-Flag; hits give high values; z-score (no concentration beside the values); 94,000 compounds, 0.72% hits;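 note: score is relative to mean and SD of negative controls; strong numbers were not always called active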
TAR Tat displ: HIV-1 TAR-Tat binding disruption | HIV-1 TAR RNA, Tat peptide displacement FRET; hits give high values | z-score (concentration not given with the values) | 100,000 compounds, 0.6% hits | AID 1259389;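 note: score is relative to mean and SD of negative controls; some compounds called inactive have numbers as strong as hits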
Starred values were filed as active, the others as inactive; . = no result given.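 Rule for the calls: active = z-score from 3 up in half or more of its runs; inactive = the rest.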 Compounds were not picked by outcome. Share with any hit: about 0.97%.

Start of the data: the first three entries, to show the layout:
SMILES	CDC25B CDK2 inh	TAR Tat displ
O=C(NCC1CCCO1)c1cc2c(s1)-c1ccsc1CC2 (stereo not drawn)	.	1.05
CCOC(=O)c1c(C)oc2nc(C)nc(N3CCN(c4ccccc4)CC3)c12	.	0.12
O=c1cc(CSc2nc3ccccc3[nH]2)nc2sc(-c3ccco3)nn12	-0.16	14.9*

Results, repeating the preview:
SMILES	CDC25B CDK2 inh	TAR Tat displ
O=C(NCC1CCCO1)c1cc2c(s1)-c1ccsc1CC2 (stereo not drawn)	.	1.05
CCOC(=O)c1c(C)oc2nc(C)nc(N3CCN(c4ccccc4)CC3)c12	.	0.12
O=c1cc(CSc2nc3ccccc3[nH]2)nc2sc(-c3ccco3)nn12	-0.16	14.9*
c1ccc(CN2CCCN(Cc3ccccc3)C2c2ccncc2)cc1	-1.88	.
CCOc1ccccc1-c1nc2c(c(=O)[nH]1)Cc1cc(Br)ccc1O2	-1.52	1.51
O=S(=O)(c1cc(Cl)sc1Cl)n1cccc1	-1.68	.
Cc1nc2sccn2c(=O)c1S(=O)(=O)Nc1ccc(N2CCOCC2)cc1	.	0.82
Cc1c(C(=O)NC2CC2)oc2ccc(S(=O)(=O)N3CCCCCC3)cc12	-0.65	.
Cn1c(=O)c2c(ncn2CC(=O)NC2CCCCCC2)n(C)c1=O	-0.45	.
COc1ccc(-c2nn(Cc3nc(-c4ccc(OC)c(OC)c4)oc3C)c(=O)c3noc(C)c23)cc1	.	-0.49
Cn1c(=O)oc2cc(NS(=O)(=O)c3cccc4nsnc34)ccc21	.	0.6
Cc1nc(S(=O)(=O)Nc2ccc(F)cc2)cn1C	.	2.78
COc1ccc(C2=C([N+](=O)[O-])/C(=C/N3CCCCC3)N=C2)cc1	0.79	.
Cc1nc2scc(C)n2c(=O)c1S(=O)(=O)N1CCN(c2ccccc2F)CC1	-1.48	1.18
O=C1c2cccnc2C(=O)N1Cc1ccccc1	-1.57	-1.28
COC(=O)/C(C)=C/CC12OC(C)(C)C3CC(C=C4C(=O)c5cc6c(c(CCC(C)(C)Cl)c5OC431)OC1(C)CCC(=C(C)C)C6C1)C2=O (stereo not drawn)	.	1.5
C=CCNC(=O)C1=CC(c2ccc(F)cc2)=NS(=O)(=O)N1C	2.4	0.35
Cc1ccccc1Nc1c(-c2ccccc2O)nc2sccn12	-1.94	-0.65
CC(=O)c1c(C)[nH]c(C(=O)NCCN2CCCCCC2)c1C	-1.29	.
O=c1[nH]c(SCc2ccc(Br)cc2)nc2c1CCCC2	-2	0.12
CCSc1nnc(NC(=O)CN2C(=O)C(C)(C)c3ccccc32)s1	.	0
O=C(Cc1ccccc1)c1ccc(-c2ccccc2)cc1	-0.44	2.41
CC1=C(C(=O)N2CCCCC2)C(c2cc(Br)ccc2F)C2=C(CCCC2=O)N1 (stereo not drawn)	.	2.04
Clc1ccc(-c2cc3ncc4c(n3n2)-c2ccccc2OC4)cc1	-0.47	0.32
COCCN1C2=C(C(=O)CC(C)(C)C2)C(c2cc(Cl)c(O)c(OC)c2)C2=C1CC(C)(C)CC2=O	-0.5	2.33
O=C(Nc1csc(C(F)(F)F)c1-c1ccccc1)c1ccco1	-1.12	.
N#C[C@@H]1O[C@H](COC(=O)c2ccccc2)[C@@H](OC(=O)c2ccccc2)[C@H]1OC(=O)c1ccccc1	-1.63	.
O=S(=O)(NCCSCc1ccc(Cl)cc1)c1ccc2c(c1)OCCO2	1.15	0.14
O=C(NCc1cccs1)c1ccc(N2CCSc3ncccc32)s1	.	0.06
CC1(C)CC(=O)C2=C(C1)c1c(ccc3ccccc13)NC2c1cccc(O)c1 (stereo not drawn)	-1.73	-0.8
Cc1ccc(-c2c3c(=O)n(C)c(=O)n(C)c3c3n2C(C)(C)COC3c2ccc3c(c2)OCO3)cc1 (stereo not drawn)	-1.13	0.88
COc1ccc(OC)c(NC(=O)N2CCN(c3cc(N(C)C)nc(C)n3)CC2)c1	-1	-0.7
CCCC(=O)NC(c1ccco1)c1cc(Cl)c2cccnc2c1O (stereo not drawn)	-2.32	.
O=C(NC1CCCCC1)N1CCN(c2nc3cc(F)ccc3n3cccc23)CC1	.	0.48
CC(C)CC(=O)N[C@H](C(=O)N[C@H](C(=O)N[C@@H](CC(C)C)[C@@H](O)CC(=O)N[C@@H](C)C(=O)N[C@@H](CC(C)C)[C@@H](O)CC(=O)O)C(C)C)C(C)C	.	19*
CCc1nn(CC(=O)NCCCSC2CCCCC2)c(=O)c2cc3sccc3n12	0.02	1.07
O=C(O)CCc1nc(CS(=O)(=O)c2ccc(F)cc2)no1	-1.14	-0.08
Cc1c2c(=O)[nH]ncc2c(-c2ccccc2)n1CCSCc1c(F)cccc1Cl	-0.86	.
CN1C(=O)CSc2ccc(NC(=O)Nc3nccs3)cc21	-0.23	-1.9
CCOC(=O)C(CCOCCOc1cc(C)c(Cl)c(C)c1)C(=O)OCC	-1.59	.
O=C(CSc1nc2c(c(=O)n1CCc1ccccc1)SCC2)NC1CCCC1	.	2.34
COc1cccc(CCNc2ncnc3c2nnn3C)c1	.	0.84
CCS(=O)(=O)c1nc(S(=O)(=O)c2ccc(C)cc2)c(NC2CCCC2)s1	0.79	-0.07
O=C1c2ccccc2C(Nc2ccc(F)cc2)N1c1ccc(Cl)cc1 (stereo not drawn)	-1.3	1.87
COc1ccc(N2CCN(S(=O)(=O)c3ccc(Br)cc3)CC2)cc1	-2.16	.
Cc1nn2c(c1-c1cccc(Cl)c1)NCN(Cc1ccc(Cl)cc1)C2	-1.78	2.44
COC(=O)c1cccnc1-n1c(=O)c2cccnc2n(Cc2ccc(F)cc2)c1=O	-1.6	-1.06
C=CCOC(=O)c1sc(N2C(=O)c3oc4ccc(C)cc4c(=O)c3C2c2cccc(O)c2)nc1C (stereo not drawn)	0.77	0.98
CC(=O)N/C(=C/c1ccoc1)C(=O)O	-2.03	.
Cc1csc2nc(CSc3nc(-c4ccccc4F)nc4cc(=O)[nH]n34)cc(=O)n12	.	-0.26
N[C@H](CCCP(=O)(O)O)C(=O)O	-1.88	.
Cc1nc(SCC(O)CN2CCCCC2)c([N+](=O)[O-])[nH]1 (stereo not drawn)	-2.39	0.16
Cn1c(=O)[nH]c(=O)c2c1nc(N1CCNCC1)n2CC(O)COc1ccccc1 (stereo not drawn)	-1.65	0.91
O=c1c2oc3nc4c(cc3c2ncn1Cc1ccccc1Cl)CCCC4	.	0.1
CC1Cc2ccccc2N1S(=O)(=O)c1ccc2c(c1)oc(=O)n2C (stereo not drawn)	-1.67	.
NS(=O)(=O)c1ccc(NC(=O)c2ccc3c(c2)OCO3)cc1	-1.87	.
COc1ccc(-c2noc(N3CCC(Cc4ccccc4)CC3)n2)cc1OC	.	-0.45
COc1ccc(OC2C(=O)N(Cc3ccc(F)cc3)C2c2ccc3c(c2)OCO3)cc1 (stereo not drawn)	-0.24	0.79
COC(=O)c1cc(=O)n2c(nc3ccccc32)s1	-1.4	1.24
CC1CCN(CCCNS(=O)(=O)c2ccc3c(c2)CCCC(=O)N3)CC1	.	0.63
Additional results follow:
SMILES	CDC25B CDK2 inh	TAR Tat displ
Cc1cccc(CNS(=O)(=O)c2cc(-c3csc(C)n3)ccc2C)c1	.	1.05
CC1(c2csc(Nc3ccccc3Cl)n2)CCC(=O)O1 (stereo not drawn)	0.8	1.12
Cn1cccc1CNCCCSc1nnnn1C	-1.76	1.6
CCCCc1[nH]nc2c1C1(CCN(C)CC1)C(C#N)=C(N)O2	1.54	-4.8
CC(=O)N1CCc2c(sc3c2c(=O)n(-c2ccc(Br)cc2F)c(=O)n3CC(C)C)C1	-0.5	0.58
CC(C)(CO)NC(=O)CC(=O)NC(C)(C)CO	-0.13	0.57
C/C(=N\OC(=O)NC(=O)c1ccccc1F)c1ccc(F)c(F)c1	-1.01	.
O=C(O)Cc1ncn(-c2ccccc2)n1	.	0.14
Cc1ccc2c(C)nc(Nc3nc(-c4ccccc4)cc(=O)[nH]3)nc2c1	-2.57	1.02
CCCSCCCNC(=O)Cn1cc2c(n1)CCCCC2	1.35	0.4
COCCNC(=O)COc1ccc(Br)cc1	-0.09	-0.45
Cc1ccc(-c2cnc(NCc3ccc(Br)cc3)n2C)cc1	-1.89	0.84
COC(=O)C1C(=O)C2=C(CC1C)NC(C)=C(C(=O)OC1CCCCC1)C2c1ccc(OC)c(O)c1 (stereo not drawn)	0.18	0.21
Cc1nc2ccc(F)cc2cc1C(=O)O	-0.59	.
CC(Sc1nc2c(c(=O)[nH]1)CCC2)C(=O)Nc1ccc(Br)cc1 (stereo not drawn)	-2.74	0.2
CC1CCCN(c2csc3ccccc3c2=O)C1 (stereo not drawn)	.	0.78
Cc1ccc2c(c1)NC(SCc1ccc(F)cc1)=NS2(=O)=O	.	0.41
O=C(O[C@@H]1Cc2c(O)cc(O)cc2O[C@@H]1c1cc(O)c(O)c(O)c1)c1cc(O)c(O)c(O)c1	.	25.1*
CC(C)OCCCNc1nc2c(S(=O)(=O)c3ccc(Cl)cc3)nnn2c2ccsc12	.	1.08
N#CCCSc1ccccc1N1C(=O)CSC1=S	-2.49	.
O=C(NCc1ccco1)c1cc2c(Cl)ccc3c2n1CCO3	.	1.48
CC(NC(=O)c1cccnc1)c1nc(-c2ccc(C(C)(C)C)cc2)no1 (stereo not drawn)	-0.47	0.46
COc1cc(C2SCCS2)cc(Br)c1OC(=O)NC(=O)c1c(F)cccc1F	-2.05	.
Cc1ccc(S(=O)(=O)c2nnn3c2nc(N2CCOCC2)c2ccccc23)c(C)c1	-1.14	-0.44
O=[N+]([O-])c1ccc(-c2cn3ccsc3n2)cc1	-1.45	.
CS(=O)(=O)NCCc1ccccc1	-0.1	-0.79
CCn1c(-c2cc(-c3ccccc3)sc2N)n[nH]c1=S	1	.
COc1ccc2nc(NC(=O)Cn3cnc(S(=O)(=O)N4CCc5ccccc54)c3)sc2c1	.	-0.6
Cc1ccc(Nc2c(-c3ccc(N4CCOCC4)cc3)nc3nc[nH]n23)cc1	-0.16	1.06
CCS(=O)(=O)c1nc(S(=O)(=O)c2ccc(C)cc2)c(NCc2ccccn2)s1	-1.18	0.62

Three compounds out of the list, ordered by length of the SMILES, smallest number first.
SMILES	CDC25B CDK2 inh	TAR Tat displ
CC1CCCN(c2csc3ccccc3c2=O)C1 (stereo not drawn)	.	0.78
O=[N+]([O-])c1ccc(-c2cn3ccsc3n2)cc1	-1.45	.
O=C(O[C@@H]1Cc2c(O)cc(O)cc2O[C@@H]1c1cc(O)c(O)c(O)c1)c1cc(O)c(O)c(O)c1	.	25.1*

Profiles, quoted from the list:
`CS(=O)(=O)NCCc1ccccc1` in the list: CDC25B CDK2 inh: -0.1; TAR Tat displ: -0.79
`CCn1c(-c2cc(-c3ccccc3)sc2N)n[nH]c1=S` in the list: CDC25B CDK2 inh: 1; TAR Tat displ: .

The list continues.
SMILES	CDC25B CDK2 inh	TAR Tat displ
O=C1CC(c2cccnc2)c2cc3c(cc2N1)OCCO3 (stereo not drawn)	-0.39	-0.11
O=C(CSC1=NS(=O)(=O)c2ccccc2N1)Nc1ccc(F)cc1	.	0.41
Cc1nc2ccc(Cl)cn2c(=O)c1NC(=O)c1ccc(F)cc1	.	1.25
Cn1cc(C2CC(=O)N(c3ccccc3O)C2=O)c2ccccc21 (stereo not drawn)	-2.34	-0.68
COc1ccc(C2CC(=O)C3=C(C2)NC(C)=C(C(=O)OC(C)C)C3c2ccc(N(C)C)cc2)cc1 (stereo not drawn)	-2.06	-0.59
CCOC(=O)CCc1c(C)n(CC)c2ncnn2c1=O	-0.49	2.18
Cc1nc2ncnn2c(C)c1CCC(=O)NCCCOC(C)C	-0.49	-1.1
CC1CC(C)CN(C(=O)CCC(=O)N2CCOc3ccccc32)C1 (stereo not drawn)	-1.4	0.85
Cc1c(C(=O)Nc2cc(F)ccc2F)sc2nc3n(c(=O)c12)CCCC3	.	0.51
Cc1cc(C(=O)Nc2ccc(F)c(Cl)c2)on1	0.26	.
Cc1cc(C)cc(-n2nnc(C(=O)O)c2C)c1	-1.03	3.59
Cc1nnc2c(NCCCN3CCOCC3)nc3ccccc3n12	-1.1	1.57
Cn1c(=O)c(=O)n(C)c2cc(S(=O)(=O)N3CCCCC3)ccc21	-0.06	0.14
Cn1c(=O)c2[nH]c(-c3ccc(Cl)cc3)c(O)c2n(C)c1=O	-1	.
COCCn1c(SCC(=O)NCc2ccco2)nc2c(c1=O)SCC2	-1.29	0.34
CC(=O)N1c2ccc(S(=O)(=O)N3CCC(C(=O)N(CC(C)C)CC(C)C)CC3)cc2CC1C (stereo not drawn)	.	1
O=C(CCS(=O)(=O)c1cc(Br)cc2c1N(C(=O)C1CC1)CC2)NCc1cccs1	-1.37	1.01
Cc1ccc(N(C)S(=O)(=O)c2ccc(-c3cnc(C4CC4)o3)cc2)cc1	.	0.9
O=c1cnn([C@@H]2O[C@H](CO)[C@@H](O)[C@H]2O)c(=O)[nH]1	.	1.52
Clc1ccccc1-c1nnc(COc2ccc3ccccc3c2)o1	0.14	0.84
COc1ccc(S(=O)(=O)N2CCC(N3CCOCC3)CC2)cc1Cl	.	2.11
Cc1nc(SCC(=O)N2CCCCC2)c2c(=O)n(C)c(=O)n(C)c2n1	-3.43	.
O=C(NCc1ccco1)c1cc(CN2CCOCC2)on1	.	0.94
CCOc1ccc(N2C(=O)c3cccnc3C2Nc2ccc(Br)c(C)c2)cc1 (stereo not drawn)	-0.23	0.58
